Source: PubChem (Fisher Drug Discovery Resource Center)
NPYLR7 agonist: activates Aedes aegypti NPYLR7 receptor; activation, % at 10 µM; HEK293T NPYLR7/Galpha15, GCaMP6s calcium fluorescence; 270,000 compounds, 0.15% hits; in the data active means activation above about 40%;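 further: 0% = vehicle and 100% = reference agonist at the receptor; some compounds past the cut are filed as inactive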
NPYLR7 agonist max-min: further read-out of NPYLR7 agonist, marked with its call; activation, %; measured here: Max-Min RFU normalised activation; some inactives read as strong as hits;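 span of the calcium signal over five minutes; 0% = vehicle and 100% = native peptide agonist; compound fluorescence can raise it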
Active calls of the source: *; & = joins results of further samples.

Screening C=CCc1cc(C2CC(=O)Nc3c2c(C2CC2)nn3C)cc(OCC)c1OC (stereo unspecified) returned NPYLR7 agonist -2.2 and NPYLR7 agonist max-min -2.4.
`CCOc1ccc(-c2ccc(C)c(NC(=O)c3ccc(S(=O)(=O)N(C)C)cc3)c2)nn1` gave NPYLR7 agonist 0.0 and NPYLR7 agonist max-min 15.4.
For Cc1cc(C)cc(-c2nc3cc(C)ccn3c2NC(=O)COc2ccccc2)c1 the results were NPYLR7 agonist -9.5 and NPYLR7 agonist max-min -7.3.
For COc1cc(/C=C2\C(=O)N(c3ccccc3)N=C2C)cc([N+](=O)[O-])c1O the results were NPYLR7 agonist -5.5 and NPYLR7 agonist max-min 4.3.
`O=C(CC1Sc2ccc(C(F)(F)F)cc2NC1=O)NC1CC1` (stereo unspecified) gave NPYLR7 agonist 27.7 and NPYLR7 agonist max-min 21.3.
For O=C1CCCN1CCCNS(=O)(=O)c1cccc(Cl)c1F the results were NPYLR7 agonist 7.6 and NPYLR7 agonist max-min 5.7.
`FC(F)(F)c1nc2nc(-c3ccco3)cc(C(F)(F)F)n2n1` gave NPYLR7 agonist 7.1 and NPYLR7 agonist max-min 12.8.
For CC(=O)c1nc(N2C(=O)CC(Cc3cccc(C)c3)C2=O)sc1C (stereo unspecified) the results were NPYLR7 agonist -3.7 and NPYLR7 agonist max-min -5.2.
For COc1cccc(Cc2nsc(N(CCC(=O)N3CC4(C)CC3CC(C)(C)C4)C(C)C)n2)c1 (stereo unspecified) the results were NPYLR7 agonist 11.2 and NPYLR7 agonist max-min 23.3.
CC(=O)NC(NC(=S)Nc1ccc(S(N)(=O)=O)cc1)C(Cl)(Cl)Cl (stereo unspecified) was read as NPYLR7 agonist -11.2 and NPYLR7 agonist max-min -16.4.
`OC1CCN(c2nccn3ccnc23)CC1` gave NPYLR7 agonist 3.0 and NPYLR7 agonist max-min -0.5.
Screening COc1cccc(OCc2ccc(Cn3nc(NC(=O)Nc4cccc(C#N)c4)c4cc(C(F)(F)F)ccc43)cc2)c1 returned NPYLR7 agonist 11.0 and NPYLR7 agonist max-min 10.3.
`CCCn1nc(C(=O)NNC(=O)c2c(C)noc2C)c2ccccc2c1=O` gave NPYLR7 agonist -6.2 and NPYLR7 agonist max-min -6.9.
For Cc1cc(C)cc(NC(=O)C(c2ccccc2)N2CCN(C)CC2)c1 (stereo unspecified) the results were NPYLR7 agonist 0.2 and NPYLR7 agonist max-min -2.1.
CC(=O)Nc1cncc(-c2ccccc2CN(C)C)n1 was read as NPYLR7 agonist 0.7 and NPYLR7 agonist max-min -0.9.
O=C(Oc1cccc2cccnc12)c1cc(I)ccc1Cl was read as NPYLR7 agonist -14.9 and NPYLR7 agonist max-min -20.1.
Nc1ccc(-c2nc3ccc(-c4nc5ccc(N)cc5[nH]4)cc3[nH]2)cc1 was read as NPYLR7 agonist 1.6 and NPYLR7 agonist max-min -18.7.
COc1ccc2[nH]c3c(c2c1)CCN(C(=O)/C=C/c1cccc(C(F)(F)F)c1)C3c1ccccc1OC (stereo unspecified) was read as NPYLR7 agonist 18.3 and NPYLR7 agonist max-min 2.0.
CN1CCCC2(CCN(C(=O)COCc3nc4ccc(F)cc4[nH]3)C2)C1=O (stereo unspecified) was read as NPYLR7 agonist 14.6 and NPYLR7 agonist max-min 7.9.
For CC(Cc1ccc2c(c1)OCO2)CN1C[C@H]2C[C@H](O)[C@H](O)C[C@H]2C1 (stereo partly specified) the results were NPYLR7 agonist 9.3 and NPYLR7 agonist max-min 6.4.
`CCn1nc(C(=O)N2CCCN(C(=O)Oc3ccccc3)CC2)ccc1=O` gave NPYLR7 agonist -5.9 and NPYLR7 agonist max-min -4.9.
C=CCc1c(C)nc2c(-c3ccccc3)cnn2c1NCC(C)C was read as NPYLR7 agonist 1.2 and NPYLR7 agonist max-min -1.5.
For CC(C)N(Cc1ccc(OS(=O)(=O)c2ccc(F)cc2)cc1)C(=O)COc1ccccc1 the results were NPYLR7 agonist 2.0 and NPYLR7 agonist max-min 4.0.
O=C(Cn1ccccc1=O)Nc1nc(-c2cccc3ccccc23)cs1 was read as NPYLR7 agonist -2.9 and NPYLR7 agonist max-min -5.4.
`COc1ncccc1C(=O)N1CCC(n2nccc2NC(=O)C(OC)c2ccccc2)CC1` (stereo unspecified) gave NPYLR7 agonist -2.4&19.7 and NPYLR7 agonist max-min -4.6&17.2.
Screening COc1cc2nc(-c3cccc(OC(C)=O)c3)oc(=O)c2cc1OC returned NPYLR7 agonist -0.6 and NPYLR7 agonist max-min -7.2.
Cc1ccc(C(=O)N2CCSC2c2cccc(Oc3ccccc3)c2)cc1[N+](=O)[O-] (stereo unspecified) was read as NPYLR7 agonist -3.1 and NPYLR7 agonist max-min 5.8.
`CC1CCCN(C(=O)c2cn(C)cc3c(=O)n(-c4ccccc4)nc2-3)C1` (stereo unspecified) gave NPYLR7 agonist 7.5 and NPYLR7 agonist max-min 4.7.
`O=C(CCc1ccccc1)NCCc1nc2ccccc2n1C(F)F` gave NPYLR7 agonist 3.3 and NPYLR7 agonist max-min 1.8.
O=c1c2ccc(F)cc2ncn1CC(O)COc1ccccc1 (stereo unspecified) was read as NPYLR7 agonist 2.2 and NPYLR7 agonist max-min 7.1.
Cc1ccc(-n2nnnc2CNC(=O)C(c2ccccc2)c2ccccc2)cc1C was read as NPYLR7 agonist 1.5 and NPYLR7 agonist max-min -1.3.
Screening O=C(CSc1ccc2nnc(-c3cccnc3)n2n1)NC1CCCC1 returned NPYLR7 agonist -0.1 and NPYLR7 agonist max-min -2.4.
For Cc1cccc2sc(N(Cc3ccccn3)C(=O)C3CC(=O)N(c4ccccc4)C3)nc12 (stereo unspecified) the results were NPYLR7 agonist -3.6 and NPYLR7 agonist max-min -8.0.
COc1cc(OC)cc(C(CC(=O)Nc2ccc(C)cc2)c2cnc3cc(C)ccn23)c1 (stereo unspecified) was read as NPYLR7 agonist 25.2 and NPYLR7 agonist max-min 16.4.
Screening O=S(=O)(Nc1cccc(-c2ccc3nncn3n2)c1)c1cccs1 returned NPYLR7 agonist -21.0 and NPYLR7 agonist max-min -18.8.
O=C(C1CCN(S(=O)(=O)c2ccccc2)CC1)N(Cc1ccccc1F)C1CC1 was read as NPYLR7 agonist -2.5 and NPYLR7 agonist max-min -5.0.
Screening CC1(c2cccs2)NC(=O)N(Cc2cccc(C(F)(F)F)c2)C1=O (stereo unspecified) returned NPYLR7 agonist -1.7 and NPYLR7 agonist max-min 11.2.
Screening C=CCNC(=O)C(C1CCCC1)N1CCN(C(=O)COCc2ccccc2)CC1 (stereo unspecified) returned NPYLR7 agonist -7.6 and NPYLR7 agonist max-min -0.6.
For Cc1cccc(S(=O)(=O)NC(=O)C2(C)CCN2C(=O)CCc2ccccc2)c1 (stereo unspecified) the results were NPYLR7 agonist -0.6 and NPYLR7 agonist max-min -0.3.
Screening CCOCCCNCC(=O)N(Cc1ccccc1)Cc1cccs1 returned NPYLR7 agonist -11.6 and NPYLR7 agonist max-min -15.8.
`Cc1cccc(CSc2nc3ccccc3[nH]2)c1` gave NPYLR7 agonist 2.7 and NPYLR7 agonist max-min 9.2.
`CCC(=O)N1c2ccccc2N=C2CC(c3ccccc3)CC(=O)C2C1c1ccco1` (stereo unspecified) gave NPYLR7 agonist -4.4 and NPYLR7 agonist max-min -3.2.
Screening COc1cccc(C(=O)NC(C(=O)N2CCCC2)C2CCN(C(=O)c3ccco3)CC2)c1 (stereo unspecified) returned NPYLR7 agonist 9.6 and NPYLR7 agonist max-min 8.2.
`COc1ccc(C2=N/C(=C\c3coc4c(Cl)cc(Cl)cc4c3=O)C(=O)O2)cc1[N+](=O)[O-]` gave NPYLR7 agonist 1.7 and NPYLR7 agonist max-min -1.4.
Screening Clc1cccc(Nc2nnc(-c3ccc(Br)cc3)o2)c1 returned NPYLR7 agonist -9.2 and NPYLR7 agonist max-min -12.4.
`O=C(N[C@@]1(c2ccccc2)CCCC[C@H]1O)c1cccnc1N1CCCNCC1` gave NPYLR7 agonist 5.3 and NPYLR7 agonist max-min 7.9.
For CCC(C)(C)C(=O)N1CCN(c2ccc(NC(=O)c3ccc(F)cc3)cn2)CC1 the results were NPYLR7 agonist 19.5 and NPYLR7 agonist max-min 22.2.
For O=C(CN1CN(c2ccccc2)C2(CCN(C(=O)C3CC3)CC2)C1=O)Nc1ccccc1 the results were NPYLR7 agonist -1.7 and NPYLR7 agonist max-min 2.0.
`Cc1cccc(-c2ccc(C(=O)N3CCCN(c4nc(C)cs4)CC3)c(=O)[nH]2)c1` gave NPYLR7 agonist -0.5 and NPYLR7 agonist max-min 17.9.
`O=C(Cc1cc(-c2cc3ccccc3o2)on1)NCc1ccccn1` gave NPYLR7 agonist 11.1 and NPYLR7 agonist max-min 14.8.
For CCCCc1ccc(NC(=O)CSc2nc(CC)nc3c2c(=O)n(C)c(=O)n3C)cc1 the results were NPYLR7 agonist 8.9 and NPYLR7 agonist max-min 11.8.
CCOC(=O)N1CCC(NC(=O)C2CC23CCN(C(=O)C(c2ccccc2)C2CCCC2)CC3)CC1 (stereo unspecified) was read as NPYLR7 agonist 12.7 and NPYLR7 agonist max-min 0.0.
For CC(C)Nc1ccc(C(=O)N2CCC(O)(c3ccccc3)CC2)cn1 the results were NPYLR7 agonist -9.9 and NPYLR7 agonist max-min -14.7.
For OCCNc1nc(N2CCN(Cc3ccccc3)CC2)nc2c1cnn2-c1ccc(F)cc1 the results were NPYLR7 agonist 1.2 and NPYLR7 agonist max-min 0.1.
CCN(CC)C1CCN(c2c3c(nc4ncnn24)CCCC3)CC1 was read as NPYLR7 agonist 26.4 and NPYLR7 agonist max-min 17.6.
CCn1c(=O)[nH]c2cc(C(=O)NCc3ccccc3)ccc2c1=O was read as NPYLR7 agonist 3.8 and NPYLR7 agonist max-min 3.7.
`CCCCn1c(=O)[nH]c(=O)c2c1nc(CSC1CCCC1)n2C` gave NPYLR7 agonist -1.4 and NPYLR7 agonist max-min -0.9.
Screening O=C(CSc1ccc(S(=O)C(F)(F)F)cc1[N+](=O)[O-])OCC(F)(F)C(F)F (stereo unspecified) returned NPYLR7 agonist -7.8 and NPYLR7 agonist max-min -16.2.
`Brc1ccc(-n2nnnc2-c2nc3ccccc3[nH]2)cc1` gave NPYLR7 agonist 9.5 and NPYLR7 agonist max-min 7.8.
CCOc1ccc(CN(Cc2nc(C(=O)NC3CC3)co2)C(C)c2ccccc2)cc1 (stereo unspecified) was read as NPYLR7 agonist 3.3 and NPYLR7 agonist max-min 4.1.
Screening CC(c1ccccc1)N1C(=O)C(=Cc2c(NCC3CCCO3)nc3ccccn3c2=O)SC1=S (stereo unspecified) returned NPYLR7 agonist 0.6 and NPYLR7 agonist max-min 5.0.
For N[C@@H]1c2ccccc2C2(CCN(C(=O)CCc3ccccc3F)CC2)[C@H]1O the results were NPYLR7 agonist 12.4 and NPYLR7 agonist max-min 11.4.
COCCN(CC(=O)Nc1nc(CC(=O)N2CCN(c3ccc([N+](=O)[O-])cc3)CC2)cs1)C(=O)C1CCCCC1 was read as NPYLR7 agonist -9.8 and NPYLR7 agonist max-min -4.0.
CC(C)(CNC(=O)CCc1nnc(-c2ccccc2)o1)N1CCOCC1 was read as NPYLR7 agonist 24.2 and NPYLR7 agonist max-min 11.1.
`CC1C2CC(C(S(=O)(=O)O)C2=O)C1(C)C` (stereo unspecified) gave NPYLR7 agonist 4.9 and NPYLR7 agonist max-min 1.2.
`Cc1ccc2oc(CN3CCOC(CN)C3)c(C)c2c1` (stereo unspecified) gave NPYLR7 agonist 4.6 and NPYLR7 agonist max-min 0.9.
O=C(Nc1sc2c(c1-c1nc3ccccc3s1)CCCC2)c1cccnc1 was read as NPYLR7 agonist 4.4 and NPYLR7 agonist max-min -6.5.
For COc1ccc(OC)c(NC(=O)Cn2nc(SC)c(S(=O)(=O)c3ccc(C)cc3)c2N)c1 the results were NPYLR7 agonist 0.3 and NPYLR7 agonist max-min -7.4.
`COCCNC(=O)c1ccc(CSc2nnc(-c3ccccc3Cl)n2-c2cccc(Cl)c2)cc1` gave NPYLR7 agonist -1.8 and NPYLR7 agonist max-min -0.7.
For N#Cc1ccc(COC(CN2CCN(C(=O)COCc3ccccc3)CC2)c2cccc(N3CCCC3)c2)cc1 (stereo unspecified) the results were NPYLR7 agonist 1.5 and NPYLR7 agonist max-min 0.8.

Molecules above containing an NH in an aromatic ring (8):
Nc1ccc(-c2nc3ccc(-c4nc5ccc(N)cc5[nH]4)cc3[nH]2)cc1 was read as NPYLR7 agonist 1.6 and NPYLR7 agonist max-min -18.7.
COc1ccc2[nH]c3c(c2c1)CCN(C(=O)/C=C/c1cccc(C(F)(F)F)c1)C3c1ccccc1OC (stereo unspecified) was read as NPYLR7 agonist 18.3 and NPYLR7 agonist max-min 2.0.
CN1CCCC2(CCN(C(=O)COCc3nc4ccc(F)cc4[nH]3)C2)C1=O (stereo unspecified) was read as NPYLR7 agonist 14.6 and NPYLR7 agonist max-min 7.9.
`Cc1cccc(CSc2nc3ccccc3[nH]2)c1` gave NPYLR7 agonist 2.7 and NPYLR7 agonist max-min 9.2.
`Cc1cccc(-c2ccc(C(=O)N3CCCN(c4nc(C)cs4)CC3)c(=O)[nH]2)c1` gave NPYLR7 agonist -0.5 and NPYLR7 agonist max-min 17.9.
CCn1c(=O)[nH]c2cc(C(=O)NCc3ccccc3)ccc2c1=O was read as NPYLR7 agonist 3.8 and NPYLR7 agonist max-min 3.7.
`CCCCn1c(=O)[nH]c(=O)c2c1nc(CSC1CCCC1)n2C` gave NPYLR7 agonist -1.4 and NPYLR7 agonist max-min -0.9.
`Brc1ccc(-n2nnnc2-c2nc3ccccc3[nH]2)cc1` gave NPYLR7 agonist 9.5 and NPYLR7 agonist max-min 7.8.

Some of the compounds tested; count on the stated rates, not on these rows.
